# Screens from PubChem BioAssay.
# PINK1 modulator: modulators of PINK1 expression | Potency, µM (top dose mostly 76.6 µM), without a hit: at the top dose activation (PINK1 increase), most hits filed as activators | PINK1 immunofluorescence, high-content cytometry, 24 h | actives 0.2% (n = 410,000); active = well fitted activation curve with a large enough effect; inconclusive = small, poorly fitted or top-dose-only effect; inactive = flat fitted curve, though single readings scatter; cell line not stated here;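 further: potency means the concentration at half of the fitted maximal effect; % of control where 0% means no effect; nearly all actives have a fitted effect of over 65% in size; a mitochondrial uncoupler was the plate control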
#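 Cells are seeded, rested 12 hours, then given compound at five concentrations or DMSO for 24 hours. After fixation, blocking and antibody staining, PINK1 amount and mitochondrial localization are scored; CCCP serves as control.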
# TRPML1 ag: agonists of human TRPML1 channel; TRPML1-expressing cells, Ca2+ dye fluorescence, FDSS; host cell line not named in the record; reference of the full effect not given here; activation, % (no concentration beside the values); Q9GZU1; actives 0.12% (n = 410,000); in the data active = activation above about 50%; inconclusive = about 30% to 50%; inactive = below about 30%; further: 0% is about no effect; the text of the record puts the active cut at 80%
#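 Tet-induced TRPML1-DL cells, 1,500 per well, cultured overnight, were loaded with a no-wash Ca2+ dye for 45–90 min. Calcium fluorescence was recorded on the FDSS for 110 s after compound addition, before the EC80 agonist (4 uM 54-4) was added.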
# Six1-Eya2 inh: blocks human Six1 binding to Eya2 | Q15475+O00167 | AlphaScreen GST-Six1/His-Eya2 binding, biochemical; active compounds read low; control for the full effect not named in the record | activity change, % (test concentration not listed) | actives 0.56% (n = 360,000) | AID 651725; in the data active = activity change below about -65%; inconclusive = about -30% to -65%; inactive = above about -30%; further: on the % scale 0 is the no-effect control and ±100 the full control effect
# Target sequence (O00167 whole entry, looked up): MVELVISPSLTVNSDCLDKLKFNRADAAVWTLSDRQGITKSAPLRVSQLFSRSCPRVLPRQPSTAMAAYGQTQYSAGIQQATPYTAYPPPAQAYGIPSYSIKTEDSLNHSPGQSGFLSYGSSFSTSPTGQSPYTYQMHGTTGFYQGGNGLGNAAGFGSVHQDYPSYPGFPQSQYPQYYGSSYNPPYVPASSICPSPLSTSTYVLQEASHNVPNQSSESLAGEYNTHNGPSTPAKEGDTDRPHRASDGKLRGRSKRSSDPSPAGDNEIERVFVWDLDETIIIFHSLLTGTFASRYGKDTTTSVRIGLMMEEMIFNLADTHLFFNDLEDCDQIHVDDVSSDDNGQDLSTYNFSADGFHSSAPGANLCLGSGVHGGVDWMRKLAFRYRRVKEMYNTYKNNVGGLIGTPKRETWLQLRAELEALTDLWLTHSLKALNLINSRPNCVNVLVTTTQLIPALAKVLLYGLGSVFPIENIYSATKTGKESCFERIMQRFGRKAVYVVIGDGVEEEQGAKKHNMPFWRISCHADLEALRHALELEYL
# Target sequence (Q15475 whole entry, looked up): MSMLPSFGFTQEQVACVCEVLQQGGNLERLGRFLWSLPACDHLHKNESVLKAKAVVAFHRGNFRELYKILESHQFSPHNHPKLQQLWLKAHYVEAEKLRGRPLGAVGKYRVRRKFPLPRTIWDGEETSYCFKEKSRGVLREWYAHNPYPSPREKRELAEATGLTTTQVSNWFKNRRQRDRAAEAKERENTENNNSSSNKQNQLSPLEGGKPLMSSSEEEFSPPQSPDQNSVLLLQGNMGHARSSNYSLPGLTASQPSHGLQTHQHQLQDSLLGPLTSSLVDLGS
#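 AlphaScreen luminescence read after one hour at 37 °C in darkness. Pin-transferred compounds met GST-Six1 and His-Eya2 protein (5X stock 250 nM/500 nM) plus glutathione donor and Ni-chelate acceptor beads (5X, 50 ug/mL).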
# TRPML1 inh: human mucolipin-1 channel inhibition; Q9GZU1; activity change, negative = inhibition, % (concentration not given with the values); actives 0.02% (n = 390,000); TRPML1-inducible cells, Ca2+ dye fluorescence, FDSS; active compounds read low; inhibition of EC80 agonist-evoked calcium signal; AID 624415; in the data active means activity change below about -50%; inconclusive means about -30% to -50%; inactive means above about -30%;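 further: stimulus is agonist 54-4 at its EC80 concentration; on the % scale 0 is the no-effect control and ±100 the full control effect; the text of the record puts the active cut at -80%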
#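 TRPML1-DL cells, Tet-induced overnight (~16 h, 37 °C) at 1,500 cells/well, were loaded with Ca8 no-wash dye plus quencher for 45-90 min at room temperature. Compounds were pinned during FDSS kinetic reading; agonist 54-4 at EC80 (4 uM final) then added.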
# CtBP-E1A inh: CtBP/E1A binding inhibition; AlphaScreen GST-E1A/His-CtBP binding, 1536-well; active compounds read low; control for the full effect not named in the record; activity change, % (concentration not given with the values); AID 651724; actives 0.49% (n = 340,000); in the data active means activity change below about -65%; inconclusive means about -30% to -65%; inactive means above about -30%; further: on the % scale 0 is the no-effect control and ±100 the full control effect
#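 GST-E1A and His-tagged CtBP (125 nM each as 5X stock) were preincubated with pin-transferred compound for 2 h at 37 °C in the dark, then glutathione donor and nickel acceptor beads were added for 1 h before AlphaScreen reading.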
# D2 ag: human D2 receptor agonism in beta-arrestin assay; AID 624465; P14416; DiscoveRx PathHunter D2 beta-arrestin, luminescence, 90 min; 100% = 57 uM dopamine signal; activation, % (no concentration beside the values); actives 0.084% (n = 360,000); in the data active = activation above about 40%; inconclusive = about 15% to 40%; inactive = below about 15%; further: compound concentration not given in the record; the text of the record calls up to 30% inactive
#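 DiscoveRx PathHunter D2 beta-arrestin cells (2,100/well) attached overnight, then compound-stimulated 90 min at 37 C in HBSS/10 mM HEPES/0.1% Tween-20 buffer; beta-galactosidase complementation read by luminescence after 1 h at ambient temperature. Dopamine 57 uM final (EC100) as control.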
# Numbers without * were called inactive; ? = inconclusive; / = not tested or not shown; [ ] = another dose, or the depositor's remark.
SMILES,PINK1 modulator,TRPML1 ag,Six1-Eya2 inh,TRPML1 inh,CtBP-E1A inh,D2 ag
O=C(Cn1ncc2c3ccccc3n(Cc3cccc(Cl)c3)c2c1=O)N1CCCCC1,1.4%,1.1,/,1.3,/,/
COc1ccc(CCNc2nc3ccc(Cl)cc3n3cnnc23)cc1OC,-0.2%,1.0,/,-3.2,/,/
Cc1ccc(N2CC(C(=O)NC(C)CCc3ccccc3)CC2=O)cc1 (stereo not drawn),0.9%,1.4,4.6,-9.3,-2.7,-4.5
CC(=O)c1cccc(NC(=O)CC2S/C(=N/N=C/c3ccccc3)NC2=O)c1 (stereo not drawn),-0.2%,1.0,-7.8,-5.4,/,-0.9
CCCc1nc2ccccc2c(C(=O)OCC(=O)Nc2c(C)n(C)n(-c3ccccc3)c2=O)c1CC,0.0%,1.4,-1.4,10.8,-12.6,0.7
O=C(O)Cn1c(Cc2ccccc2)nc2ccccc21,0.3%,0.2,-2.6,-3.1,-4.9,-3.2
O=C(NC1CCCCC1)C1c2ccccc2C(=O)N1Cc1ccc2c(c1)OCO2 (stereo not drawn),4.0%,-1.1,1.0,-13.7,7.7,2.6
C=CCSc1nc(C)c(CC=C)c(=O)[nH]1,/,0.6,4.6,-0.9,7.1,-1.6
Cc1[nH]n(-c2ccccc2)c(=O)c1C(c1cc(Cl)ccc1O)c1c(C)[nH]n(-c2ccccc2)c1=O,1.3%,0.1,/,6.3,/,/
CC12CCC(C(=O)Nc3c(Cl)cccc3Cl)(C(Br)C1=O)C2(C)C (stereo not drawn),10.4%,-0.3,7.5,-1.6,-3.1,-4.0
CCc1cccc(NC(=O)CCN2C(=O)c3ccccc3Sc3ncccc32)c1,0.7%,0.6,/,13.0,/,/
CSCC[C@H](N)C(=O)N1CCC(C(=O)N[C@@H](Cc2c[nH]c3ccccc23)C(=O)O)CC1,-2.3%,2.1,3.1,-8.2,-4.3,-0.2
CCCCC(=O)Nc1cc(OC)c(NC(=O)C2CCCCC2)cc1OC,0.4%,-0.1,-3.5,-7.6,-1.1,-0.8
O=C(Cc1n[nH]c(=O)c2ccccc12)N1CCN(c2ccc(F)cc2)CC1,-0.2%,0.8,14.5,-6.7,4.3,-0.4
CCc1ccc2[nH]c(=O)c(C3C(C#N)=C(N)Oc4c3ccc3cccnc43)cc2c1 (stereo not drawn),1.6%,1.1,?,14.3,-86.4*,-8.7
C[C@H](NC(=O)c1ccco1)C(=O)NNC(=O)COc1cccc(C(F)(F)F)c1,-0.3%,-1.1,-3.4,3.6,/,1.1
CNc1nc(-c2ccc3c(c2)CCN3C(=O)c2ccccc2C)cs1,3.8%,1.2,-17.2,51.9,-1.1,1.7
COC(=O)c1nnn(-c2nonc2N)c1CN1CCCC1,0.2%,0.4,-2.1,-0.6,-2.3,3.2
CCN1CCCC1CNS(=O)(=O)c1cccc(C(F)(F)F)c1 (stereo not drawn),-0.1%,0.1,6.8,-9.9,1.0,-4.3
COc1ccc(N2C(=O)CC(NCc3ccncc3)C2=O)cc1 (stereo not drawn),-0.6%,-0.5,-10.6,9.3,-1.4,-5.1
CC[C@H](C)C(N)c1cn([C@@H](CC(N)=O)C(=O)N2CCNCC2)nn1 (stereo partly drawn),0.7%,-0.3,1.5,13.1,0.4,-4.0
O=C(/C=C/c1cccs1)N1CCN(Cc2ccc3c(c2)OCO3)CC1,-2.6%,0.6,-4.1,22.1,-5.5,-3.7
COc1cc(NS(=O)(=O)c2cc(Br)cc3c2N(C(=O)C2CC2)CC3)cc(OC)c1,1.7%,1.8,/,3.5,/,/
Cc1cccc(C)c1Nc1n[nH]c(=S)s1,0.5%,-0.1,-7.8,-9.4,3.7,-1.8
O=C(COC(=O)/C=C/c1ccccc1Cl)NCCNC(=O)COC(=O)/C=C/c1ccccc1Cl,12.8%,0.1,6.8,-2.4,-1.0,-0.1
COc1ccc(-c2csc(C3=C(O)CN(Cc4ccc(Cl)cc4)C3=N)n2)cc1OC,29.7%[38.3 µM],-0.8,-18.2,3.4,-16.8,0.6
O=C(c1ccco1)N1N=C(c2cccs2)CC1c1ccco1 (stereo not drawn),-5.5%,-0.3,3.4,-2.4,-1.2,-3.2
O=C(NCC(=O)N1CCCCCCC1)c1ccc(Cl)c(Cl)c1,6.2%,-0.5,-2.3,-5.6,-1.0,-1.9
O=C(Nc1c(C(=O)N2CCOCC2)cnn1-c1ccccc1Cl)c1ccco1,-4.0%[38.3 µM],-0.5,5.8,1.3,14.8,-1.2
CS(=O)(=O)N1CCN(c2nnc(-c3ccccc3)c3ccccc23)CC1,-0.4%,1.0,17.1,-12.9,22.7,-2.0
Cc1ccc(NC(=O)CSc2nnc(Cc3cccn3C)n2-c2ccc(F)cc2)cc1,-1.5%,0.3,-20.7,18.1,-25.0,0.4
COc1cccc(CSc2nnc(-c3ccco3)n2C)c1,1.3%,0.2,-1.7,10.7,1.7,-0.8
COCCC(=O)N1CCC(Oc2ccc(C(=O)N3CCCCCC3)cc2)CC1,-0.9%,-0.4,1.4,26.9,5.9,0.0
Cc1ccc(CCC(=O)Nc2ccc(CC(=O)O)cc2)o1,0.4%,0.0,2.8,1.2,1.2,-1.4
O=C(CSc1nc2ccccc2o1)N1CCN(c2ccc(Cl)cc2)CC1,0.2%,0.8,-0.6,-13.9,-0.5,0.6
COc1ccc(C2/C(=C(/O)c3ccccc3)C(=O)C(=O)N2c2ncccn2)cc1OC (stereo not drawn),1.0%,1.1,1.0,-1.2,13.2,2.4

# Complete entries as entered above.
# COc1ccc(-c2csc(C3=C(O)CN(Cc4ccc(Cl)cc4)C3=N)n2)cc1OC is entered as PINK1 modulator: 29.7%[38.3 µM]; TRPML1 ag: -0.8; Six1-Eya2 inh: -18.2; TRPML1 inh: 3.4; CtBP-E1A inh: -16.8; D2 ag: 0.6
# CS(=O)(=O)N1CCN(c2nnc(-c3ccccc3)c3ccccc23)CC1 is entered as PINK1 modulator: -0.4%; TRPML1 ag: 1.0; Six1-Eya2 inh: 17.1; TRPML1 inh: -12.9; CtBP-E1A inh: 22.7; D2 ag: -2.0

# (more compounds)
SMILES,PINK1 modulator,TRPML1 ag,Six1-Eya2 inh,TRPML1 inh,CtBP-E1A inh,D2 ag
Cc1ccccc1CCN(CC(=O)NCc1ccc(F)cc1)C(=O)c1csnn1,-0.2%,-1.2,6.3,-6.9,21.7,-1.8
CCOc1ccc(S(=O)(=O)NC(C)(C)C)cc1-c1nc2c(C(C)(C)C)nn(C)c2c(=O)[nH]1,-5.9%[38.3 µM],1.0,-21.1,-2.4,6.9,-1.8
O=C(Nc1ccccc1)c1ccccc1OS(=O)(=O)c1ccccc1,0.3%,1.2,0.6,19.5,-2.2,3.4
Cc1ccc(C)c(CNS(=O)(=O)c2c(C(=O)N3CCCC3)c(C)n(C)c2C)c1,-0.4%,-0.8,0.6,-21.8,-8.7,-4.7
CSc1nsc(SCC(=O)Nc2ccc(Br)cn2)n1,0.7%,3.3,-1.3,-13.5,1.9,-2.4
Cc1ccccc1-n1ncc(C(C)NS(=O)(=O)c2sccc2C)c1C (stereo not drawn),1.0%,-0.2,-0.5,-10.5,8.0,-1.2
CCOc1ccc(C2C(C(=O)Nc3ccc(F)cc3)=C(C)Nc3nc(CCCO)nn32)cc1 (stereo not drawn),0.3%,0.3,0.3,-6.3,1.9,-6.9
COCC(=O)N(Cc1nc2ccccc2c(=O)[nH]1)Cc1cccs1,0.1%,-0.4,5.2,16.9,3.3,-2.4
O=C(/C=C(\O)c1ccccc1)C(=O)NNC(=O)c1ccccc1,-0.2%,/,-2.2,/,3.1,-1.8
Cc1nc(NC(=S)NC(=O)c2cncc(Br)c2)ccc1Br,-1.3%,-0.1,12.0,-2.7,-16.0,0.6
CC1CCN(Cc2nc3c(c(=O)n(C)c(=O)n3C)n2CCc2ccccc2)CC1,1.1%,0.1,2.9,2.5,2.1,-1.0
CCc1noc(C)c1C(=O)N1CCN(S(=O)(=O)c2cccc(C(F)(F)F)c2)CC1,1.5%,0.2,-0.4,6.3,/,-1.6
COc1c(Cl)cc(C(=O)N(Cc2ccc(C)o2)C2CCS(=O)(=O)C2)cc1Cl (stereo not drawn),-0.4%,0.3,/,-3.1,/,/
CC(C)(C)NC(=O)CN(Cc1cccs1)C(=O)C1COc2ccccc2O1 (stereo not drawn),-2.7%,-1.0,4.4,9.7,8.1,0.4
COc1ccc(-n2nnnc2C2CCN(S(=O)(=O)c3cccc(Cl)c3C)CC2)cc1,-0.2%,-0.2,/,13.2,/,/
O=C(CSC1=NS(=O)(=O)c2ccccc2N1)Nc1nccs1,1.3%,0.2,3.3,7.8,0.6,-4.9
O=C1CSC(=S)N1c1ccc(O)cc1,4.0%,-0.5,-1.4,-3.7,/,-3.3
O=C(NCc1ccccn1)C1CCCN(S(=O)(=O)c2cccc3nsnc23)C1 (stereo not drawn),3.1%,-0.9,-8.7,19.7,-11.1,-2.5
CCc1ccc(NC(=O)C(C)OC(=O)C2CCN(c3ccc(C(F)(F)F)cn3)CC2)cc1 (stereo not drawn),6.2%,1.7,10.5,4.7,9.5,-0.6
CCC(=O)N(Cc1ccco1)Cc1cc2cccc(C)c2n2nnnc12,-0.5%,0.8,-1.3,-20.1,-12.1,6.7
CCOC(=O)c1ccc(N2C(=O)CC(N3CCN(C(=O)c4ccco4)CC3)C2=O)cc1 (stereo not drawn),-0.8%,-1.0,-1.2,-13.9,0.0,-3.5
CC1(C)C=C(c2ccc(O)cc2)CC(C)(C)N1,/,0.3,2.7,-8.3,7.5,-1.9
COc1ccc(OCC(=O)N/N=C(\C)c2ccc(-n3ccnc3)cc2)cc1,6.0%,0.0,-2.9,-10.9,15.6,-5.1
COc1ccc(C(=O)Nc2ccccc2-c2ccccc2)cc1Cl,5.2%,1.3,0.9,11.4,-0.1,-4.1
CC(C)C(NC(=O)c1ccccc1)C(=O)NCC(c1ccccc1)N(C)C (stereo not drawn),-0.2%,2.5,4.0,9.8,-14.9,-1.1
Cc1cc(NC(=O)c2cc(-c3ccccc3Cl)nc3ccccc23)no1,2.8%,1.7,-14.7,10.6,-11.1,-3.1
CCCCN1CCCCC1(C)C(=O)NCc1ccc2c(c1)OCO2 (stereo not drawn),1.2%,-0.5,-2.3,/,0.9,-3.5
N/C(=N\S(=O)(=O)c1ccc(Cl)cc1)N1CCOCC1,-1.2%,-0.5,9.8,-6.5,9.1,-0.5
COc1ccc(OC)c(S(=O)(=O)n2nc(C)cc2C)c1,0.6%,0.5,0.6,4.3,1.2,0.0
COc1ccccc1C(=O)NCC(=O)NNC(=O)C1COc2ccccc2O1 (stereo not drawn),2.2%,-0.3,5.8,3.3,-17.5,-4.0
CNC(=O)c1c(C)[nH]c(=S)c(C#N)c1-c1ccco1,1.0%,0.1,27.0,-10.0,/,-2.6
COCC(C)NC(=O)COCc1cc(-c2ccc3c(c2)OCO3)on1 (stereo not drawn),-1.0%,/,5.0,/,3.7,-3.4
Cn1nccc1C(=O)Nc1nnc(C2CC2)s1,-0.1%,0.6,7.6,11.8,6.9,0.3
C/C(=N\OCc1nc2ccccc2c(=O)n1/N=C/c1cc(C)cc([N+](=O)[O-])c1O)c1ccccc1,-0.9%,1.0,4.5,43.5,4.2,-2.3
